# SARS PLP yeast = blocks SARS-CoV papain-like protease in a yeast assay; S. cerevisiae expressing SARS-CoV PLpro, growth rescue; control for the full effect not named in the record; Potency, µM (top dose mostly 32.9 µM), without a hit: top-dose activity, positive = growth rescue; 0.19% of 330,000 active; AID 485353; active means well fitted rising curve with a large enough effect; inconclusive means small, poorly fitted or top-dose-only effect; inactive means no such curve, though single readings can be large or run the other way; also: 0% is about no effect; nearly all actives have a fitted effect of over 55% in size; growth read by luminescence after 48 h
# LASV entry inh = Lassa virus entry inhibition. Lassa virus pseudotype entry inhibition, cell reporter; control for the full effect not named in the record. 1.2% of 300,000 active. Potency, µM (top dose mostly 37.9 µM), inactives show top-dose activity change, negative = inhibition, usual class: inhibitors; active means well fitted inhibition curve with a large enough effect; inconclusive means small, poorly fitted or top-dose-only effect, or effect the other way; inactive means flat fitted curve, though single readings scatter; tested in HEK293 cells; also: % is scaled to controls: 0 for no effect and ±100 for the full control effect; nearly all actives have a fitted effect of over 50% in size; luciferase read-out
# 2A StopGo = FMDV 2A StopGo reporter, luciferase signal; human cells with a luciferase reporter of 2A StopGo recoding; control for the full effect not named in the record; AID 1159524; Potency, µM (top dose mostly 57.9 µM), for inactives: at the highest dose signal change, negative = less light; 1.2% of 410,000 active; active = well fitted falling curve with a large enough effect; inconclusive = small, poorly fitted or top-dose-only effect; inactive = no such curve, though single readings can be large or run the other way; tested in HEK293T cells; also: % is scaled to controls: 0 for no effect and ±100 for the full control effect; nearly all actives have a fitted effect of over 45% in size; luciferase light after 4 h
# MARV entry inh = Marburg virus entry inhibition. 1.8% of 300,000 active. Potency, µM (series often up to 37.8 µM), for the others: top-dose activity change, negative = inhibition, actives largely listed as inhibitors. Marburg virus pseudotyped entry inhibition, cell reporter; control for the full effect not named in the record; about a third of the inactives were read at about 46 µM; active = well fitted inhibition curve with a large enough effect; inconclusive = small, poorly fitted or top-dose-only effect, or effect the other way; inactive = flat fitted curve, though single readings scatter; tested in HEK293 cells; about a fifth of its hits are not listed in these tables; also: % is scaled to controls: 0 for no effect and ±100 for the full control effect; luciferase read-out
# Cruzain inh Det = cruzain (T. cruzi) inhibition with detergent; P25779; purified cruzain, Z-FR-AMC fluorescence, 0.01% Triton; Potency, µM, inactives show max response, negative = inhibition, hits mostly inhibitors; 0.43% of 200,000 active; AID 1478;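 also: plate controls were neutral wells for no effect and buffer without enzyme for full effect; nearly all actives have a fitted effect of over 40% in size; top concentration of the series not given in the record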
# Target sequence (P25779 123-467 limits assumed): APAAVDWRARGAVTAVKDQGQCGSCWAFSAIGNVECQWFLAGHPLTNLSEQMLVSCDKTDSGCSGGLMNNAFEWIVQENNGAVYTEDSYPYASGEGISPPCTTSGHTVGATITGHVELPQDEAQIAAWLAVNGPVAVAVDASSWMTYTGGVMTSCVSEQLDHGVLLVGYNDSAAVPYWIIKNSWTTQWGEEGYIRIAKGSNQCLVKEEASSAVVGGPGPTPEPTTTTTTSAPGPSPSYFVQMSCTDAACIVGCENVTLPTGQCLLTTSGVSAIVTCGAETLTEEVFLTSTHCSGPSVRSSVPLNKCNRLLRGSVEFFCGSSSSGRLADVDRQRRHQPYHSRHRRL
#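 Compounds were screened in titration against cruzain (1.5 nM) with 0.01% Triton X-100 to counter colloidal aggregation. Activity was the AMC fluorescence increase over 60 s after adding 2 uM Z-FR-AMC at pH 5.5.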
# RE007 growth inh = less growth of the S. pombe RE007 Vpr strain | AID 651644 | Potency, µM (top dose mostly 92.2 µM), for the others: at the highest dose activity change, negative = less growth | S. pombe RE007 Vpr strain, BacTiter-Glo ATP luminescence, 24 h; control for the full effect not named in the record | 0.21% of 360,000 active; active = well fitted falling curve with a large enough effect; inconclusive = small, poorly fitted or top-dose-only effect; inactive = no such curve, though single readings can be large or run the other way;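 also: % is scaled to controls: 0 for no effect and ±100 for the full control effect; nearly all actives have a fitted effect of over 50% in size; the assay follows cell death caused by Vpr and the record does not say whether a fall means rescue or toxicity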
#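 Fission yeast strain RE007, carrying one chromosomally integrated HIV-1 vpr copy, was seeded at OD 0.01 in PMG+AL medium with 23 nL pinned compound. After 24 h at 30 °C and 99% humidity, viability was read by BacTiter-Glo luminescence.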
# Cruzain noTriton = blocks cruzain activity in detergent-free assay. P25779. purified cruzain, Z-FR-AMC fluorescence, no detergent. Potency, µM, for the others: max response, negative = inhibition, usual class: inhibitors. 2.3% of 200,000 active. AID 1476;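 also: plate controls were enzyme without inhibitor for no effect and buffer without enzyme for full effect; nearly all actives have a fitted effect of over 40% in size; top concentration of the series not given in the record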
#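 Purified cruzain at 1.5 nM, pre-incubated 15 min with compound at room temperature in 100 mM sodium acetate pH 5.5, 5 mM DTT, 0.00005% Triton X-100. Reaction started with 2 uM Z-FR-AMC; AMC fluorescence increase over 60 s gives rate.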
# NS1 inh = blocks influenza NS1 protein function | Potency, µM (top dose mostly 46.1 µM), for inactives: at the top dose activity, positive = more growth | S. cerevisiae slowed by influenza A NS1, growth recovery by OD600 | 0.4% of 270,000 active; active means well fitted rising curve with a large enough effect; inconclusive means small, poorly fitted or top-dose-only effect; inactive means no such curve, though single readings can be large or run the other way; also: nearly all actives have a fitted effect of over 50% in size
#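 S. cerevisiae expressing influenza A NS1, grown in glucose, washed, then diluted 1:100 into pH 6.0 -URA galactose medium with 23 nl compound. Growth recovery read as OD600; NS1-free strain serves as control.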
# An asterisk follows results filed as active; u = inconclusive; x = no result given; & = joins results of further samples; [ ] = another dose, or the depositor's remark. Unless noted, calls follow the shape of the dose curve; as a rule, active = well fitted curve in the direction sought with a large enough effect; inconclusive = small, poorly fitted or top-dose-only effect, or another doubt; inactive = no such curve, though single readings can be large; an effect the other way counts as inactive or inconclusive. Potency is read from the fitted curve at half-maximal effect.
SMILES,SARS PLP yeast,LASV entry inh,2A StopGo,MARV entry inh,Cruzain inh Det,RE007 growth inh,Cruzain noTriton,NS1 inh
COC(=O)c1ccc2c(=O)n(CCCCCC(=O)N3CCN(c4cc(Cl)ccc4C)CC3)c(=O)[nH]c2c1,x,u,14µM*,x,-0.7%,x,4%,x
Cc1cc(C)c(OCCCNC2CCCC2)c(Br)c1,1%,x,-18%,x,x,-2%,x,-3%
CC1CCc2sc(C(=O)OC(C)C(=O)Nc3ncc(Cl)cc3Cl)cc2C1 (stereo not drawn),-1%,20%,x,15%,9.0%,x,-3%,8%
CSc1ccccc1NC(=O)c1cc(-c2ccc3c(c2)OCO3)on1,-3%,7%,33%[activator],9%[46.1 µM],x,13%,x,5%
CCCCC(CC)C(=O)Nc1ccc(Nc2ccccc2)cc1 (stereo not drawn),-11%,-2%,0%,-2%,-5.3%,-21%,-3%,5%
CCCCNC(=S)Nc1ccc(-c2nc3ccc(C)cc3s2)cc1,28%,u,0%,u,-3.2%,u,u,12%
CC1Cc2nc(SCC(=O)Nc3ccc(F)cc3F)n(C)c(=O)c2S1 (stereo not drawn),5%,6%,x,u,-3.5%,0%,-2%,-118%
COc1ccc(Cl)cc1S(=O)(=O)Oc1ccc(NC(C)=O)cc1,-19%,-21%,-15%,-4%,-6.4%,-3%,-2%,1%
COC(=O)c1nn(-c2cccc(C)c2)c2nnc(Cc3ccccc3)c(=O)n12,-8%,u,-10%,6%,-2.8%,-5%,-11%,1%
CCc1ccccc1NC(=O)Cn1c(=O)n(CC(=O)NCCc2ccccc2)c(=O)c2ccccc21,x,5%[46.1 µM],-15%,4%[46.1 µM],-3.2%,x,-8%,x
COc1cccc(CCNC(=O)CCc2nnc(-c3ccc4c(c3)OCO4)o2)c1,13%,x,25%,x,x,7%,x,-15%
CCOC(=O)C1CCCN(C(=O)c2ccc(S(=O)(=O)NCc3ccco3)cc2)C1 (stereo not drawn),-13%,1%,-22%,-29%,x,-14%,x,x
CC1=C/C(=C(\c2ccc(O)c(C)c2)c2ccccc2S(=O)(=O)O)C=CC1=O,-3%,0%[46.1 µM],-19%,-7%[46.1 µM],x,6%,x,u
CCOc1ccc(OCCOCCN2CCCC2)cc1,-1%,x,-6%,x,x,2%,x,15%
CCCc1ccc(OC(=O)CSc2nnc(-c3cccs3)o2)cc1,x,-11%[46.1 µM],-14%,u,-3.6%,x,-5%,x
CCCNC(=O)COc1nc2ccccc2nc1N1CCOCC1,1%,6%,-25%,-1%,-3.1%,1%,-3%,1%
CSc1ncccc1C(=O)OCC(=O)c1ccc(S(=O)(=O)N2CCCCC2)cc1,-2%,-7%,u,-12%,x,2%,x,x
COCCNC(=O)C(c1ccc(OC)cc1)N(CCOC)C(=O)CCC(=O)Nc1nccs1 (stereo not drawn),2%,-2%,2%,1%[46.1 µM],x,-12%,x,-8%
Cc1ccc(NC(=O)CCC(=O)OCC(=O)c2ccc(-c3ccccc3)cc2)cc1,-2%,-20%,-19%,1%,-5.3%,2%,5%,-8%
Cc1ccc(Cc2c(C)nn(-c3nc(C)c(C(=O)N4CCCCC4C)s3)c2C)cc1 (stereo not drawn),x,2%[46.1 µM],2%,-22%[46.1 µM],-1.3%,x,u,x
O=C(Cc1cccs1)Nc1ccccc1-c1nc2ccccc2[nH]1,-2%,-1%,-17%,u,x,6%,x,6%
CC1=C(Sc2nc3ccccc3[nH]2)C(=O)NC(C)(C)C1,0%,0%,-3%,19%,2.7%,13%,-6%,-1%
O=C(Cn1cnc2c(oc3ccccc32)c1=O)Nc1ccc(F)cc1F,x,-11%[46.1 µM],21%,x,-8.5%,x,-15%,x
Nc1cccc(-c2nc3ccccc3[nH]2)c1,4%,u,68%[activator],u,-3.6%,-2%,-11%,-7%&1%
COc1ccccc1N1CCN(C(=O)c2cccc(C(=O)N3CCN(c4ccccc4OC)CC3)c2)CC1,-1%,-17%[46.1 µM],u,u,x,-6%,x,-25%
COc1cc(Br)cc2cc(C(=O)N3CCCCC3C)c(=O)oc12 (stereo not drawn),2%,13%,-18%,-18%,-0.8%,2%,-7%,3%
COC(=O)N1[C@H](C)C=C[C@]1(Cc1ccccc1)C(=O)NCCCNc1ncc(C(F)(F)F)cc1Cl,x,x,-9%,x,-12%,4%,u,x
Cc1cccc(N2CCN(C(=O)C(NS(=O)(=O)c3cccs3)c3ccccc3)CC2)c1C (stereo not drawn),-6%,2.6µM*,-11%,-29%,-4.3%,-1%,-26%,-14%
COc1ccccc1OCCNc1ccc(S(=O)(=O)N2CCCC2)cn1,-2%,-2%,-14%,6%[46.1 µM],x,-17%,x,x
O=C(CSc1nc2ncccc2[nH]1)NC1CCCCC1,-1%,7%[46.1 µM],15%,6%[46.1 µM],x,-8%,x,7%
COc1cccc(CNC(=O)CSc2nc3ccccc3nc2Cc2ccc(C)cc2)c1OC,x,0%[46.1 µM],-7%,x,1.8%,x,-8%,x
Cc1ccc(Cl)cc1N1C(=O)CC(Sc2ncccn2)C1=O (stereo not drawn),-18%,x,2%,x,x,-1%,x,-8%
NC(=O)c1c(NC(=O)c2ccc([N+](=O)[O-])o2)sc2c1CCCC2,-12%,u,27%,-2%[46.1 µM],x,-10%,x,-16%
CCOCCCNC(=O)c1ccc(N2CCOCC2)c(NS(=O)(=O)c2ccc(OC)cc2)c1,-1%,8%,-3%,0%,x,3%,x,x
COC(=O)c1ccc(Cn2cnc3c(cnn3-c3ccc(C)c(C)c3)c2=O)o1,-25%,5%,-26%,-1%,-8.1%,10%,u,-11%
CCCN1CCN(CCCNC(=O)CCCn2nc(C)c3sc4ccccc4c3c2=O)CC1,5%,x,-18%,x,x,2%,x,4%
COc1ccc(-c2csc(Nc3cc(C)ccn3)n2)cc1C,1%,x,-1%,x,x,-11%,x,6%
O=C(NNC(=O)c1ccc2c(=O)n3c(nc2c1)CCC3)c1cccc(Cl)c1,x,12%,u,8%,x,7%,x,x
CCOc1ccc(NS(=O)(=O)c2ccc(NC(=O)c3cccnc3)c(OC)c2)cc1,-4%,-13%[46.1 µM],29%,u,x,1%,x,x
COc1ccc(OC)c(CNC(=O)Cn2nc(C)c3nn(-c4ccc(Cl)cc4)c(C)c3c2=O)c1,x,25%[46.1 µM],-27%,x,2.0%,x,6%,x
CCOC(=O)N1c2ccccc2Sc2ccccc21,0%,x,-13%,x,x,1%,x,0%
CC(C)(C)c1ccc(OCc2nnc(-c3ccccc3)o2)cc1,x,20%[46.1 µM],12%,u,-11%,x,-4%,x
O=C(Cn1nc(-c2cccc(Cl)c2)ccc1=O)Nc1cccnc1,10%,1%,5%,18%,0.5%,7%,2%,4%
Cc1ccc2c(CSc3nncn3C)cc(=O)oc2c1C,-2%,12%,4%,u,x,-2%,x,x
CCOC(=O)Cc1csc(NC(=O)COc2ccc(C)c(C)c2)n1,-2%,8%[46.1 µM],-12%,6%[46.1 µM],x,10%,x,-6%
CCN(C(=O)/C=C/c1ccccc1)C1CCCCC1,-2%,-9%,31%[activator],18%,x,3%,x,1%
CN(CC1CCCN(CCc2ccccc2F)C1)C(=O)c1ccoc1 (stereo not drawn),-2%,7%[46.1 µM],6%,4%[46.1 µM],x,8%,x,-1%
O=C(CN(c1ccc2c(c1)OCCO2)S(=O)(=O)c1ccccc1)NCC1CCCO1 (stereo not drawn),2%,-2%,46%[activator],-3%,3.6%,5%,6%,-3%
Cc1cc(SCC(=O)N(C)CC(=O)Nc2ccc(F)cc2)nc2ccccc12,16%,u,u,u,-0.4%,0%,-5%,-4%
Cc1cccc(C)c1OCC(=O)OCC(=O)Nc1ccc(Cl)cn1,-12%,4%,-24%,-5%,x,-8%,x,x
O=C(Nc1nnc(Cc2ccc(Cl)cc2)s1)c1cccs1,-1%,3%,23%,4%,1.8%,0%,u,9%
COC(=O)c1ccc(-c2n[nH]c(=O)c3ccccc23)cc1,2%,-26%,-4%,u,1.4%,18%,-11%,-11%
COC(=O)c1sc(S(=O)(=O)NC(C)C(=O)O)c(C(=O)OC)c1C (stereo not drawn),0%,-14%,0%,7%[46.1 µM],x,0%,x,0%
CCn1cc(C(=O)NCCCOC(C)C)c(=O)c2cc(S(=O)(=O)N3CCc4ccccc4C3)ccc21,x,-11%[46.1 µM],2%,0%[46.1 µM],3.8%,x,16%,x
COc1ccc(C(=O)N2CCCC(Nc3ccc(F)cc3)C2)cc1F (stereo not drawn),-6%,-7%,-21%,-3%,x,3%,x,-8%
CC(C)Oc1ccc(CNC(=O)c2ccc3c(c2)N(Cc2ccc(F)cc2)CCS3)cc1,x,x,-16%,u,-5.0%,x,-18%,x
Cc1ccc(NC(=O)COc2ccccc2)c(NC(=O)c2ccco2)c1,4%,x,-11%,x,x,-11%,x,0%
CCOC(=O)C1=C(CN2CCC(C)CC2)NC(=O)NC1c1ccc(Cl)cc1 (stereo not drawn),2%,u,x,u,2.3%,9%,6%,-1%
COc1ccc(F)cc1Cn1nc(C(=O)O)c2ccccc2c1=O,3%,-11%,u,0%[46.1 µM],x,27%,x,2%
O=C(NC1CCCCC1)C(c1ccncc1)N(C(=O)c1csnn1)c1ccccc1F (stereo not drawn),-2%,-1%,-4%,-9%[46.1 µM],x,9%,x,6%
Cc1ccc(S(=O)(=O)CC(=O)c2ccc(C(C)(C)C)cc2)cc1,-2%,-17%,-17%,-20%,-2.1%,-12%,5%,-17%
COc1ccc2c(Sc3ccccc3)c(C(=O)NCCc3ccc(Cl)cc3)[nH]c2c1,x,14%[46.1 µM],-11%,u,-6.8%,x,u,x
CCCn1c2ccccc2c2nnc(SCC(=O)Nc3nnc(CC(=O)OCC)s3)nc21,-4%,17%,-21%,u,3.9%,4%,3%,8%

# Source: PubChem BioAssay (National Center for Advancing Translational Sciences (NCATS))

# No enrichment for hits (roughly 4.8% active in at least one column).
